Bioassay records (PubChem)
INS promoter inh: TRM-6 insulin promoter activity inhibition | AID 1273 | TRM-6 cells (human fetal islet line), insulin promoter-eGFP reporter, imaging; reporter expression induced with tamoxifen | inhibition, % at 2 µM | 130,000 tested, 0.9% active;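 active = inhibition above the mean plus 3 SD, with well images judged a real hit on visual review, cut at about 60% in these data, passing the limit was not always enough; inconclusive = inhibition over the cutoff but images rejected on review; inactive = inhibition not above the cutoff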
RGS16-Gao: RGS16-Galphao interaction regulator (human); binding response (% of control), % at 10 µM; O15492+P09471; bead-based flow cytometry RGS16-Galphao binding, fluorescence; actives lie on both sides; 220,000 tested, 0.38% active; AID 1441;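 active = below 25% or above 175%, edge rows of some plates excepted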;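 also: Galphao activated by GDP with aluminum fluoride before binding; 100% = wells without compound and 0% = beads without RGS; some results beyond the cut were filed as inactive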
Target sequence (O15492 whole entry, looked up): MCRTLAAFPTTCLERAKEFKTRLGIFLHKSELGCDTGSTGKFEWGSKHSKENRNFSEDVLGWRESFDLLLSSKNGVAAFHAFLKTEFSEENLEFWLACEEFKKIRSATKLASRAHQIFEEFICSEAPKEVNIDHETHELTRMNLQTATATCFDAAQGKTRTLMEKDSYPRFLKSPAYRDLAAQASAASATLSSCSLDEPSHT
Target sequence (P09471 whole entry, looked up): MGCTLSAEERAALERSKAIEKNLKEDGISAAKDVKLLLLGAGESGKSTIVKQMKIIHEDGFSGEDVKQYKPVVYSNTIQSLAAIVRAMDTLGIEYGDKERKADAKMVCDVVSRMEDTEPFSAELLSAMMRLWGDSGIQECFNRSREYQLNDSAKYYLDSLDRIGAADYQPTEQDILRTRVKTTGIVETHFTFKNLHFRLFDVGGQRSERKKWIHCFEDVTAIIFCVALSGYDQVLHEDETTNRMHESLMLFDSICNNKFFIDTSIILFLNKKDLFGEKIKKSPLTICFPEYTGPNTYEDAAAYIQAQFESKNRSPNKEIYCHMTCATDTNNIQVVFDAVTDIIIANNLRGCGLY
GALR2 ag: activates the human galanin receptor 2. GALR2-expressing cells, agonist activation read-out. AID 803. 140,000 tested, 0.48% active. activation, %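 (tested at 5 µM)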;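 active = above mean plus 3 SD of all compounds, about 5% in these data, not always enough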;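 also: 0% = vehicle buffer wells and 100% = reference agonist at full effect; tested in CHO reporter cells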
Target sequence (O43603 whole entry, looked up): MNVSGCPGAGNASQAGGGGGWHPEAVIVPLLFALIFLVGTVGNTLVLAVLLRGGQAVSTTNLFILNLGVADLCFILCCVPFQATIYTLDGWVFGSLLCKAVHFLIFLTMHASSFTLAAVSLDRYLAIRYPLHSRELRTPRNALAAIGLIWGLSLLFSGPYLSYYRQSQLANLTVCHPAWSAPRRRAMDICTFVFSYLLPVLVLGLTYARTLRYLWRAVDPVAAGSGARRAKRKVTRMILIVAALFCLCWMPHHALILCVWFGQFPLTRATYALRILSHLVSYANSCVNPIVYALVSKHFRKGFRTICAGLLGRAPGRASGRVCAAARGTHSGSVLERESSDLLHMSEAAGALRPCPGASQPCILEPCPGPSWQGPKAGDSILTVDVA
HSV replic up: increases HSV replication in cells | AID 1956 | maximum fold increase | HSV replication augmentation in cells, fold increase | 220,000 tested, 0.005% active;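 active = peak rise of 1.5-fold or more in the series; inconclusive = self-fluorescent or not available for retest; tested in PC3 cells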;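 also: first round at 10 µM; read as green reporter fluorescence; hits show the peak of a series up to 25 µM; 1 = signal of infected wells without compound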
PKD1 kinase inh: PKD1 (human) kinase inhibition. Q15139. PKD1 kinase fluorescence polarization assay. inhibition, %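 (about 10 µM by stock and volumes)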. 200,000 tested, 0.056% active. AID 797;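 active = inhibition of 50% or more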;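 also: controls were vehicle for no effect and a reference inhibitor for full effect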
INS promoter inh cell count: second read-out of INS promoter inh, no call of its own (marks repeat the call); normalized cell count, %; measured here: cell count, toxicity; reference of the scale not given here;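 cells exposed to compound for 48 h; stained nuclei by imaging scaled within each plate; lower means fewer cells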
HSV replic up primary fold: further read-out of HSV replic up, marked with its call; fold increase; compound at 10 µM; measured here: primary screen fold increase 10 uM; tested in PC3 cells;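 GFP signal in the first replicate; 1 = infected wells without compound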
The depositor's hits bear a star; i = inactive; ? = inconclusive; . = not tested or not shown.

SMILES	INS promoter inh	INS promoter inh cell count	RGS16-Gao	GALR2 ag	HSV replic up	HSV replic up primary fold	PKD1 kinase inh
CCC(C)NS(=O)(=O)c1ccc(NS(=O)(=O)c2ccccc2[N+](=O)[O-])cc1 (configuration not stated)	.	.	101	.	i	1.1	6
CN(C)/C=C/C(=O)c1ccc(N2CCN(c3ncc(C(F)(F)F)cc3Cl)CC2)cc1	-50	40	99	-1.0	i	0.93	5
CCC(C)NC(=O)c1ccccc1C(=O)NC(C)CC (configuration not stated)	-16	64	102	-1.8	i	0.82	-3
COC(=O)c1sccc1NC(=O)/C=C/C(=O)O	-15	99	111	.	i	1	-2
COc1ccc(C(=O)N2CCC(=O)N(C(CO)Cc3ccccc3)CC2)cc1 (configuration not stated)	24	114	99	-0.7	i	1.2	-5
NNC(=O)c1cccc(COc2ccc(Br)cc2)c1	.	.	101	-1.6	i	1.1	-2
COC(=O)CNC(=O)CN1C(=O)N(c2ccccc2)C(N(O)C(=O)Nc2ccccc2)C1(C)C (configuration not stated)	-8	180	101	-1.4	i	0.88	-13
CCOC(=O)C1=C(c2ccccc2)N=c2s/c(=C\c3cc(OC)c(OC)c(OC)c3)c(=O)n2C1c1cccs1 (configuration not stated)	3	90	100	-3.0	i	0.85	5
COc1ccccc1OCC(=O)O/N=C(\N)c1ccccn1	.	.	104	.	i	1.2	.
Cc1ccnc(NC(=O)CCC(=O)N(CC(=O)NC2CCCCC2)Cc2cccs2)c1	-100	40	106	.	i	0.98	2
CCOc1ccc(CCNC(=O)C(C)n2nc(C)n3c(cc4occc43)c2=O)cc1OCC (configuration not stated)	.	.	99	-1.5	i	0.94	-7
COC(=O)c1[nH]c2ccc(F)cc2c1NC(=O)CCN1CCN(Cc2ccc3c(c2)OCO3)CC1	.	.	84	-1.4	i	0.94	-6
Nc1nc(N)c(Cc2ccc(Cl)cc2Cl)c(N)n1	-44	85	98	.	i	0.93	-2
CC1(C)CCN(Cc2ccccc2)C1CC#N (configuration not stated)	.	.	101	-3.3	i	0.9	-14
O=C(COc1ccc(Cl)cc1)NNC(=O)C(=O)N1CCCCC1	-13	80	106	29*	i	1	-8
CC1CC(C)CN(C(=O)CSc2nc3ccsc3c(=O)n2Cc2ccccn2)C1 (configuration not stated)	-18	165	94	0.2	i	0.93	-4
CN(C)c1ccc(/C=N/Nc2cc(N3CCOCC3)nc(N3CCOCC3)n2)cc1	.	.	96	.	i	0.71	5
O=C(CN1CCOCC1)Nc1scc2c1c(=O)oc1ccccc12	.	.	102	.	i	0.83	.
O=c1[nH]n(-c2ccc(Cl)cc2)c(=O)c(Cl)c1Cl	.	.	100	-1.1	i	0.88	2
CCOc1ccc(-n2c(SCC(=O)Nc3nccs3)nnc2-c2ccoc2C)cc1	.	.	102	.	i	0.88	.
Cc1nnc(SC(C(=O)c2ccccc2)c2ccccc2)[nH]c1=O (configuration not stated)	.	.	100	.	i	0.88	.
CC(C)c1ccc(O)c(NC(=S)NC(=O)c2cccnc2)c1	.	.	101	.	i	1.1	-1
CCCCNS(=O)(=O)c1ccc(NC(=O)Cc2ccc(OC)cc2)cc1	.	.	102	.	i	0.99	-7
O=C1c2ccccc2C(=O)N1CCCCSc1nc2ccccc2o1	-260	133	102	-0.9	i	1.1	3
Nc1nc(N)c2c(ccc3nccc32)[nH]1	.	.	103	.	i	0.67	.
CCCNC(=O)NCCc1c(C)[nH]c2ccccc12	.	.	99	0.4	i	0.93	-1
COc1ccc(-c2nn(-c3ccccc3)cc2/C=N/NC(=O)c2ccc(Br)o2)cc1	-30	108	99	-0.5	i	0.66	-1
Cc1cc(C)n(C2CCCCC2OC(=O)c2ccccc2)n1 (configuration not stated)	43	93	105	-1.3	i	0.92	-14
Cc1cccc(NC(=O)NCc2ccc3[nH]c(C)cc3c2)c1	36	156	94	.	i	0.96	-3
COC(=O)CC1=NN(c2ccc(OC)cc2)C(=O)C1	.	.	96	.	i	0.74	1

Two compounds from above, reduced to RGS16-Gao and INS promoter inh cell count.
SMILES	RGS16-Gao	INS promoter inh cell count
Cc1nnc(SC(C(=O)c2ccccc2)c2ccccc2)[nH]c1=O (configuration not stated)	100	.
CC(C)c1ccc(O)c(NC(=S)NC(=O)c2cccnc2)c1	101	.

(listing goes on)
SMILES	INS promoter inh	INS promoter inh cell count	RGS16-Gao	GALR2 ag	HSV replic up	HSV replic up primary fold	PKD1 kinase inh
Cn1cc(S(=O)(=O)CC(=O)N2CCCc3ccccc32)c2ccccc21	.	.	102	-1.4	i	0.88	3
O=C(Nc1ccc(F)cc1)C1CC(=O)n2ncnc2N1 (configuration not stated)	-9	37	109	.	i	0.98	-4
C=CCOc1ccc(C2NC(=O)NC(C)=C2C(=O)OC)cc1 (configuration not stated)	58	90	124	0.1	i	1.1	-8
O=C1/C(=C/c2ccco2)Oc2c1ccc(O)c2CN1CCCCC1	22	73	96	-1.3	?	.	8
NC(=S)NC(=O)/C=C/c1ccccc1	43	102	106	.	i	0.88	1
Cc1cc(C)cc(-c2nnc(SCC(=O)N3CCN(C(=O)c4ccco4)CC3)o2)c1	.	.	103	-2.5	i	1.2	-4
O=C(C(Cc1ccccc1)n1cccc1)N1CCN(Cc2ccccc2)CC1 (configuration not stated)	.	.	209	-0.3	i	0.95	-1
O=C1C(Cl)=C(N2CCOCC2)C(=O)N1c1cccc(Cl)c1	.	.	110	-1.6	i	0.9	-8
CCC(C)n1[nH]c(=O)c2c(C)cc(C)nc21 (configuration not stated)	-14	81	103	-2.1	i	1.2	1
CSc1nc2ccccc2c(=O)n1C1CCOC(C)(C)C1 (configuration not stated)	.	.	97	.	i	0.97	-2
Cc1c(-n2cc(C(=O)c3cc(Br)ccc3O)cc(C#N)c2=O)c(=O)n(-c2ccccc2)n1C	.	.	108	-0.9	?	.	-4
Nc1nc(-c2ccco2)nn1C(=O)CCc1ccccc1	-19	72	98	-0.7	i	1	-6
CCOC(=O)c1[nH]c(C)c(/C(O)=C2\C(=O)C(=O)N(CCCN3CCOCC3)C2c2cccnc2)c1C (configuration not stated)	.	.	95	-2.3	i	0.97	-5
O=C(NCCSCc1ccco1)Nc1ccc(Cl)cc1	46	125	99	-0.3	i	0.94	8
O=C(COC(=O)CSCc1ccccc1)NCc1ccccc1	.	.	113	.	i	0.95	5
Cc1cc(C(=O)CN2C(=O)NC3(CCCc4ccccc43)C2=O)c(C)n1Cc1ccccc1 (configuration not stated)	-34	51	98	-0.9	?	.	0
COc1ccc(C(=O)C2CCCN(C(=O)c3c4c(nn3C)CCCC4)C2)cc1F (configuration not stated)	.	.	105	.	i	1.2	5
O=C(CSc1nnnn1-c1ccc2c(c1)OCCO2)Nc1nc2c(s1)CCCC2	29	119	107	-3.7	i	0.95	1
CN1C(=O)C2(N=c3ccccc3=N2)c2ccccc21	-23	142	102	-0.8	i	0.8	7
N#Cc1ccc(OCC(=O)NN2Cc3ccccc3C2=N)cc1	.	.	101	.	i	0.97	-1
NS(=O)(=O)c1ccc(NC(=O)COC(=O)/C(=C/c2cccs2)c2cccs2)cc1	.	.	99	.	i	0.81	-10
CC(C)C(c1nnnn1C(C)(C)C)N1CCN(c2cccc(Cl)c2)CC1 (configuration not stated)	.	.	101	-1.2	i	0.99	-8
CCC(C)NC(=O)c1ccccc1NC(=O)c1ccc(CSc2ccccc2)cc1 (configuration not stated)	-36	110	95	-0.1	i	0.7	-8
COc1cccc(NC2c3ccccc3C(=O)N2Cc2ccco2)c1 (configuration not stated)	.	.	93	-0.9	i	0.98	-4
c1ccc(Sc2ncnc3ccccc23)cc1	.	.	96	.	i	0.86	.
COC(=O)c1ccccc1NC(=O)C1CCCN(S(=O)(=O)c2ccc(F)cc2)C1 (configuration not stated)	40	107	98	-2.3	i	1	-17
CCOC(=O)NC(=S)Nc1ccc(C(C)(C)C)cc1Br	.	.	96	.	i	0.77	.
O=C1C(=C2SCCCS2)CC/C1=C\c1ccc(F)cc1	-59	144	94	-2.8	i	0.82	-12
COc1ccccc1N1CCN(C2=NS(=O)(=O)c3ccccc32)CC1	.	.	219	0.4	i	0.92	-4
CCOc1ccc(C2CC(c3ccccc3C)n3nc(N)nc3N2)cc1 (configuration not stated)	.	.	94	-0.7	i	1	5
C/C(Cl)=C\Cn1c(Nc2cccc(C)c2)nc2c1c(=O)n(C)c(=O)n2C	-61	111	107	-0.1	i	1.1	-11
CC(C)NC(=O)CC(=O)N/N=C/c1ccc(Br)cc1	.	.	100	-0.9	i	0.78	-1
CC(=C1C(=O)c2ccccc2C1=O)N1CCC(C(N)=O)(N2CCCCC2)CC1	-406	32	90	-2.1	i	0.93	0
CN1CCC(N(C)CC(=O)Nc2ccccc2N2CCOCC2)CC1	24	135	116	-3.8	i	0.62	-3
Cc1c2c(nc3c(C(=O)NC4CCCC4)cnn13)CCCC2	-18	77	107	-2.3	i	0.99	-12
CC[n+]1c(C)n(-c2ccccc2)c2ccc(NC(C)=O)cc21	-29	109	108	.	i	0.89	-14
CCOc1ccc(S(=O)(=O)NCc2ccccc2Cl)cc1C(N)=O	.	.	102	.	i	1.1	1
CC(=O)Nc1cc(C(=O)O)ccc1S(=O)(=O)c1ccc(C)cc1	.	.	99	-0.7	i	0.73	3

Among those listed so far, these have an NH in an aromatic ring.
SMILES	INS promoter inh	INS promoter inh cell count	RGS16-Gao	GALR2 ag	HSV replic up	HSV replic up primary fold	PKD1 kinase inh
COC(=O)c1[nH]c2ccc(F)cc2c1NC(=O)CCN1CCN(Cc2ccc3c(c2)OCO3)CC1	.	.	84	-1.4	i	0.94	-6
O=c1[nH]n(-c2ccc(Cl)cc2)c(=O)c(Cl)c1Cl	.	.	100	-1.1	i	0.88	2
Cc1nnc(SC(C(=O)c2ccccc2)c2ccccc2)[nH]c1=O (configuration not stated)	.	.	100	.	i	0.88	.
Nc1nc(N)c2c(ccc3nccc32)[nH]1	.	.	103	.	i	0.67	.
CCCNC(=O)NCCc1c(C)[nH]c2ccccc12	.	.	99	0.4	i	0.93	-1
Cc1cccc(NC(=O)NCc2ccc3[nH]c(C)cc3c2)c1	36	156	94	.	i	0.96	-3
CCC(C)n1[nH]c(=O)c2c(C)cc(C)nc21 (configuration not stated)	-14	81	103	-2.1	i	1.2	1
CCOC(=O)c1[nH]c(C)c(/C(O)=C2\C(=O)C(=O)N(CCCN3CCOCC3)C2c2cccnc2)c1C (configuration not stated)	.	.	95	-2.3	i	0.97	-5

As entered above:
RGS16-Gao result of CC[n+]1c(C)n(-c2ccccc2)c2ccc(NC(C)=O)cc21 is entered as 108
RGS16-Gao result of Cc1c2c(nc3c(C(=O)NC4CCCC4)cnn13)CCCC2 is entered as 107

3 neighbouring compounds already listed, quoted:
SMILES	INS promoter inh	INS promoter inh cell count	RGS16-Gao	GALR2 ag	HSV replic up	HSV replic up primary fold	PKD1 kinase inh
CCC(C)NS(=O)(=O)c1ccc(NS(=O)(=O)c2ccccc2[N+](=O)[O-])cc1 (configuration not stated)	.	.	101	.	i	1.1	6
CN(C)/C=C/C(=O)c1ccc(N2CCN(c3ncc(C(F)(F)F)cc3Cl)CC2)cc1	-50	40	99	-1.0	i	0.93	5
CCC(C)NC(=O)c1ccccc1C(=O)NC(C)CC (configuration not stated)	-16	64	102	-1.8	i	0.82	-3
